Menin-MLL FL inh = inhibitors of human menin-MLL interaction, wild-type MLL peptide; 290,000 tested, under 10 active; Fluorescence polarization, fluorescein-MLL peptide displacement from menin; FP activity change, % at 61.4 µM; inconclusive = falling polarisation curve, or a change in total fluorescence; inactive = total fluorescence flat and polarisation flat or rising; no compound was filed as active; the % refers to the polarisation; negative = inhibition;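 note: % of control where 0% means no effect; inhibitors lower the polarisation; unlabelled MLL peptide was the positive control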
Sfp PPTase inh = blocks B. subtilis Sfp PPTase activity; Biochemical Sfp PPTase activity, qHTS; AID 1490; Potency, µM, for the others: max response, negative = inhibition, most hits filed as inhibitors; 310,000 tested, 3.5% active; Q9F4F7; active = well fitted inhibition curve with a large enough effect; inconclusive = small, poorly fitted or top-dose-only effect, or another doubt; inactive = no such curve, though single readings can be large or run the other way;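 note: the enzyme is Sfp with the accession as filed and its product quenches rhodamine fluorescence; potency is the fitted concentration of half-maximal effect; 0% = enzyme reaction without inhibitor and -100% = no enzyme wells; top concentration of the series not given in the record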
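With Hepes-Na pH 7.6 buffer containing 10 mM MgCl2, Sfp (15 nM) modified BHQ-2-YbbR (12.5 uM) using rhodamine-CoA (5 uM). Two reads 30 minutes apart at 525/598 nm yielded each well's rate.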
* marks the source's active call; other numbers are inactive results; ? = inconclusive; & = joins results of further samples; [ ] = remark or other dose. An excerpt; count on the stated rates, not on these rows.

Results follow in this order: Menin-MLL FL inh, Sfp PPTase inh
(1) COC(=O)NC(c1ccco1)[C@@]1(C(=O)OC)CCCC1=O (stereo not given in full)
 : -7.9[11.7 µM], 14%
(2) Cc1ccc(S(=O)(=O)NC(=O)c2ccc(-c3ccc(-c4ccccc4)cc3)o2)c(C)c1
 : 3.4, -14%
(3) CCOC(=O)C(Cc1ccc(O)cc1)NC(C)=O (stereo not given)
 : -2.9, 12%
(4) O=c1c(O)c(-c2ccc(O)cc2)oc2ccccc12
 : ?, -32%
(5) C[C@@H]1CC[C@@H]2C(=O)N3[C@@H](CC[C@@H](C)[C@@H]3c3ccc(-c4ccco4)cc3)C(=O)N2[C@H]1c1ccc(-c2ccco2)cc1
 : 2.4[11.7 µM], ?
(6) CN(C)C1C(=O)C(C(N)=O)C(=O)C2(O)C(=O)C3C(=O)c4c(O)ccc(Cl)c4C(O)C3CC12 (stereo not given)
 : ?, -9%
(7) O=C(O)C1C2C=CC(O2)C1C(=O)NCCCn1ccnc1 (stereo not given)
 : 1.6, -2%
(8) CC1(C)CC(=O)C([C@H]2C3=C(CC(C)(C)CC3=O)Oc3ccccc32)C(=O)C1
 : 14, 15%
(9) CCC/C=C(\CCC)C(NC(=O)CCc1ccccc1)c1ccc(C(F)(F)F)cc1 (stereo not given)
 : -4.2, 27%
(10) O=C(OCCOCCO)c1ccccc1Nc1cccc(C(F)(F)F)c1
 : 0.5[24.8 µM], 20%
(11) CC(=O)OC1CCC2(C)C3=C(CCC2C1(C)C)[C@]1(C)CCC(C(C)CCC=C(C)C)[C@]1(C)CC3 (stereo not given in full)
 : 0.2, -4%
(12) C=CCOC(=O)[C@H](O)[C@@H](O)C(=O)OCC=C
 : -0.3, -7%
(13) Cc1nc(SCC(=O)c2cc3ccccc3oc2=O)c(C#N)c(C)c1C(=O)Nc1ccccc1
 : -0.5, 13%
(14) Cc1cc2cc(CCNC(=O)C3c4ccccc4Oc4ccccc43)c(=O)[nH]c2cc1C
 : 3.6, -8%
(15) CC1(OC(=O)CCc2ccccc2)C(=O)C=C2C=C(C3CC3)OC=C2C1=O (stereo not given)
 : 5.8, ?
(16) CC(C)CO/N=C1/C[C@@H](O)[C@@H](O)[C@@H]2[C@@H]3C(=O)N([C@@H](C)c4ccccc4)C(=O)[C@H]3CC[C@H]12
 : -1.5[11.7 µM], 1%
(17) CC(C)Oc1ccc2c(=O)c3cc(C(=O)O)ccc3oc2c1
 : ?, 9%
(18) COc1cccc(C2/C(=C(/O)c3ccncc3)C(=O)C(=O)N2CCCN(C)C)c1 (stereo not given)
 : 1.9, 1%
(19) CC#CCN1c2ccccc2[C@]23C[C@@H](C(=O)OC)N(S(=O)(=O)c4ccc(OC)cc4)C2=NC(C(=O)OC)=C(C(=O)OC)[C@H]13
 : -3.8[11.7 µM], -2%
(20) COc1ccc2c(c1)c(=O)oc1cc3oc(C)c(C)c3cc12
 : 0.9, 5%

(list continues)
Results follow in this order: Menin-MLL FL inh, Sfp PPTase inh
(21) CC1(O)C(=O)C=C2C=C(CCCCOCc3ccccc3)OC=C2C1=O (stereo not given)
 : ?, 3%
(22) O=C(O)/C=C/c1ccccc1
 : 4.8, 28%
(23) CCCC[C@H](NC(=O)[C@H](CO)NC(=O)[C@H](Cc1ccc(O)cc1)NC(=O)[C@H](CO)NC(C)=O)C(=O)N[C@@H](CCC(=O)O)C(=O)N[C@@H](Cc1cnc[nH]1)C(=O)N[C@H](Cc1ccccc1)C(=O)N[C@@H](CCCNC(=N)N)C(=O)N[C@@H](Cc1c[nH]c2ccccc12)C(=O)NCC(=O)N[C@@H](CCCCN)C(=O)N1CCC[C@H]1C(=O)N[C@H](C(N)=O)C(C)C
 : -0.5, 13%
(24) COc1cc(C(=O)N2CCCCCCC2)cc(OC)c1OC
 : 5.2, 10%
(25) CCOC(=O)N1CCN(C(=O)c2nn(-c3cc(OC)cc(OC)c3)c(=O)c3ccccc23)CC1
 : -0.2, ?
(26) CCCC(=O)N1CCN(c2ccc(C(=O)c3ccc(OC)c(Br)c3)cc2F)CC1
 : -0.7, 4%
(27) Cc1ccc(O)c2ncccc12
 : -7.3, 19%
(28) CN(C)CCCN1C(=O)C(=O)/C(=C(/O)c2ccc(OCc3ccccc3)cc2)C1c1cccnc1 (stereo not given)
 : 1.3, 17%
(29) O=C(O)C1CCC(N2C(=O)c3c(Cl)c(Cl)c(Cl)c(Cl)c3C2=O)CC1 (stereo not given)
 : -9.7, -2%
(30) OC(CN1CCNCC1)Cn1ccc2ccccc21 (stereo not given)
 : 3.0, 3%
(31) OC[C@H]1OC(O)[C@@H](O)[C@@H](O)[C@H]1O (stereo not given in full)
 : ?, -9%
(32) CC(=O)Nc1ccc(OS(=O)(=O)O)cc1
 : 4.0, 4%
(33) CNC(=O)c1c(NC(=O)c2nc3ccccc3s2)sc2c1CCC2
 : ?, 18µM*
(34) COc1cc(/C=C(\C#N)c2nc3c(s2)CC(C)CC3)ccc1O (stereo not given)
 : ?, -28%
(35) Cc1cc(C(=O)CSc2cccc[n+]2[O-])c(C)n1-c1ccc(Br)cc1
 : -2.8, -13%
(36) NC(=O)[C@@H]1CCCN1C(=O)C(Cc1cnc[nH]1)NC(=O)C1CCC(=O)N1 (stereo not given in full)
 : 0.1, 4%
(37) COc1ccc2c(c1)C(=O)[C@H](OC(=O)NS(=O)(=O)c1ccc(F)cc1)[C@@H](c1ccc(OC)c(Br)c1)O2
 : 4.5, -17%
(38) CC/C=C\C/C=C\C/C=C\C/C=C\C/C=C\C/C=C\CCC(=O)NCCc1ccc(O)c(O)c1
 : -2.0, -27%
(39) CCOc1ccc(-c2nc(-c3ccc(OC)c(OC)c3)no2)cc1OCC
 : 0.9, 15%
(40) COc1ccc(OC)c([C@H](O)CNC(=O)CN)c1
 : 1.8[24.8 µM], 5%

Following part:
Results follow in this order: Menin-MLL FL inh, Sfp PPTase inh
(41) Cc1ccc(-n2c(=O)c3sccc3n(Cc3cc(=O)n4ccccc4n3)c2=O)cc1F
 : 2.9, 10%
(42) Cc1ccc(S(=O)(=O)NC(=O)N2CCC(C)CC2)cc1
 : 0.7, 0%
(43) CCOC(C)OCC
 : -1.8, 0%
(44) CCOC(=O)c1[nH]c(C)c(C(=O)O)c1C
 : -0.3, 9%
(45) O=C1CSC(=S)N1N1C(=O)c2cccc([N+](=O)[O-])c2C1=O
 : 17, 0.71µM*
(46) CCOc1ccc(C2C(C#N)=C(N)SC(N)=C2C#N)cc1OC
 : ?, 50µM*
(47) CCCn1c(-c2ccc(F)cc2)nc2c(NCCCCN(C)C)nc(C)nc21
 : 0.7, 23%
(48) N#CCCS(=O)(=O)c1nnnn1-c1ccccc1
 : -0.3, ?
(49) CC1(Cn2ccnn2)[C@H](C(=O)O)N2C(=O)C[C@H]2S1(=O)=O (stereo not given in full)
 : -1.9, 4%
(50) N#CC1(C#N)C2=C(CCCC2)NC(c2ccccc2)C1(C#N)C#N (stereo not given)
 : ?, -6%
(51) COc1ccc(OC)c(/C=C/c2ccc3cccc(O)c3n2)c1
 : 0.7, -17%
(52) Cc1nc(NCCO)c2nc(-c3ccccc3)n(CCCN(C)C)c2n1
 : 3.8, 38%[activator]
(53) CC(C)=CCc1c(O)cc2occ(-c3ccc4c(c3)OCO4)c(=O)c2c1O
 : 3.0, 6%
(54) C=C(C)C(=O)OCCO
 : 2.0, -1%
(55) CC(C)c1ccc2c(c1)CC[C@@H]1[C@@](C)(CN)CCC[C@]21C
 : ?, -8%
(56) COC(=O)[C@H](C)NC(=O)C/C=C\[C@@H](C)[C@H]1C=C[C@H](O)[C@@H](CO)O1
 : 1.7[11.7 µM], -3%
(57) CC(=O)OCC(=O)[C@@]1(O)[C@H](OC(C)=O)C[C@H]2[C@@H]3CCC4=CC(=O)C=C[C@]4(C)[C@@]3(F)[C@@H](O)C[C@@]21C
 : -3.9, 7%
(58) CSC1=C(C#N)C(c2ccccc2Cl)C2=C(CCCC2=O)N1 (stereo not given)
 : 1.2, 8%
(59) CC(=O)c1cccc(NC(=O)Nc2cc3sccc3n2C)c1
 : 2.9, 40µM*
(60) Cc1ccc(C(C)C)c(OCC(=O)NN=C(CCl)CCl)c1
 : -2.0, 50µM*

Whole records, looked up by structure. Order of values: Menin-MLL FL inh, Sfp PPTase inh
COc1ccc(OC)c(/C=C/c2ccc3cccc(O)c3n2)c1 is listed with 0.7, -17%
CCOC(=O)c1[nH]c(C)c(C(=O)O)c1C is listed with -0.3, 9%
CCOc1ccc(C2C(C#N)=C(N)SC(N)=C2C#N)cc1OC is listed with ?, 50µM*
CCOC(C)OCC is listed with -1.8, 0%

(list continues)
Results follow in this order: Menin-MLL FL inh, Sfp PPTase inh
(61) CCC1CC=CC2C1C(=O)N(Cc1ccccc1)C2c1ccoc1 (stereo not given)
 : ?, -15%
(62) CCOC(=O)Cc1ccc(-c2ccccc2)cc1
 : 4.2, -2%
(63) COc1cc2nc(-c3ccccc3)nc(N3CCCC3)c2cc1OC
 : -0.6, 12%
(64) O=C(Nc1ccc(Cl)c(Cl)c1)Nc1cc(C(=O)NC2CC2)ccc1Cl
 : -0.5, -4%
(65) Cc1cccc(-n2c(N)cc(=O)nc2SC(C)C(=O)NC2CCCCC2)c1 (stereo not given)
 : 2.3, -7%
(66) O=C(O)c1ccc2c(c1)C(=O)N([C@H](Cc1ccc(Cl)cc1)C(=O)O)C2=O
 : 0.0, 25%
(67) Cc1ccc(S(=O)(=O)/C(C#N)=C/c2c(Oc3ccc(Cl)cc3)nc3c(C)cccn3c2=O)cc1
 : 0.8, 8%
(68) CCCCC1=CC2=C(OC(C)=O)C(=O)C(C)(OC(=O)c3ccc(Cl)nc3)C(=O)C2=CO1 (stereo not given)
 : 3.4, -18%
(69) COC(=O)/C(=C1/OC(=O)C(c2ccccc2)=C1O)c1ccccc1
 : -1.5, -8%
(70) CCCCCCCCCC(=O)O[C@H](CC(=O)O)C[N+](C)(C)C
 : -4.4, -18%
(71) O=C(c1cccnc1)N1CCN(c2ccccc2Cl)CC1
 : -25, 2%
(72) CCCCC/C=C\C/C=C\C/C=C\C/C=C\CCCC(=O)O[C@H](COCCCCCCCCCCCCCCCC)COP(=O)([O-])OCC[N+](C)(C)C
 : -1.5, 21%&-22%
(73) C=C(C(C)=O)C(O)c1cccs1 (stereo not given)
 : 0.0, -13%
(74) Cc1ccc(-c2ncc(Cl)cc2-c2ccc(S(C)(=O)=O)cc2)cn1
 : -0.5, 14%
(75) CC(C)(C)n1nc2c(c1NC(=O)Cc1cccs1)CSC2
 : -0.7, -5%
(76) Cn1c2c(c(=O)c3ccccc31)C[C@@H](O)C(C)(C)O2
 : -3.0, 8%
(77) COc1ccc(-c2ccc3c(n2)CCCN3C[C@H](O)CN2CCCc3nc(C)c(C)cc32)cc1
 : 0.0[11.7 µM], ?
(78) COC(=O)[C@@H]1C[C@@]2(O)[C@H](O)[C@H](O)[C@H](O)C[C@H]2N1Cc1ccc(N2CCN(C)CC2)cc1
 : -13, -21%
(79) CS[C@@H]1SC[C@H]2C(=O)N(C)C(C(C)C)C(=O)OC[C@@H](NC(=O)c3cnc4ccccc4n3)C(=O)N[C@@H](C)C(=O)N(C)[C@H]1C(=O)N(C)C(C(C)C)C(=O)OC[C@@H](NC(=O)c1cnc3ccccc3n1)C(=O)N[C@@H](C)C(=O)N2C (stereo not given in full)
 : 0.9, 7%
(80) CCCCC[C@H](O)/C=C/[C@H]1[C@H](O)CC(=O)[C@@H]1CCCCCCC(=O)O
 : 2.9, 28%&3%

(next part)
Results follow in this order: Menin-MLL FL inh, Sfp PPTase inh
(81) CCOc1ccc(C2=Cc3cc(OC)c(OC)cc3C(=C(Cl)Cl)O2)cc1
 : 1.2, -25%
(82) COc1ccc(C[C@H](C(=O)O)N2C(=O)c3ccc(C(=O)O)cc3C2=O)cc1
 : -1.0, -3%
(83) COC(=O)CC1C(C)(C)C(OC(C)=O)[C@@]2(O)C=C3C4CC(=O)OC(c5ccoc5)[C@]4(C)CCC3[C@@]1(C)C2=O (stereo not given in full)
 : 4.6, 10%
(84) NC(=O)C(=O)N/N=C/c1ccc([N+](=O)[O-])o1
 : -3.8, ?
(85) CCOC(=O)c1cc2c(=O)n3cc(C)ccc3nc2n(Cc2cccnc2)c1=N
 : ?, 17%
(86) C=C1c2cccc(C(F)(F)F)c2O[C@H](C(=O)OCC)[C@@H]1CCC(C)C
 : 5.1[94.6 µM], 12%
(87) CN1CCN([C@@H](c2ccccc2)c2ccc(Cl)cc2)CC1
 : 1.9[24.8 µM], 22%
(88) CC1(C)CC(NC(=S)NCc2ccc3c(c2)OCO3)CC(C)(C)N1
 : 5.8, -10%
(89) Cc1ccc(F)cc1-c1ccc(C(=O)N=C(N)N)o1
 : -0.8, -4%
(90) C/C=C(\C)C(=O)C[Si](C)(C)c1ccccc1
 : -2.7, -14%
(91) Cc1cccc(-n2c(SCc3cc(=O)n4c(C)cccc4n3)nc3[nH]ncc3c2=O)c1
 : 0.9, 11%
(92) NC1=NC2C(N=C(Br)N2[C@@H]2O[C@H]3COP(=O)(O)O[C@@H]3[C@@H]2O)C(=O)N1 (stereo not given in full)
 : 0.0, 4%&25%

An excerpt of these results, as labelled records.
#86 C=C1c2cccc(C(F)(F)F)c2O[C@H](C(=O)OCC)[C@@H]1CCC(C)C
- Menin-MLL FL inh = 5.1[94.6 µM]
- Sfp PPTase inh = 12%
#87 CN1CCN([C@@H](c2ccccc2)c2ccc(Cl)cc2)CC1
- Menin-MLL FL inh = 1.9[24.8 µM]
- Sfp PPTase inh = 22%
#88 CC1(C)CC(NC(=S)NCc2ccc3c(c2)OCO3)CC(C)(C)N1
- Menin-MLL FL inh = 5.8
- Sfp PPTase inh = -10%

Screening results (PubChem)
